High-throughput results as filed in PubChem BioAssay.
HSV replic up: increases HSV replication in cells; HSV replication augmentation in cells, fold increase; maximum fold increase; actives 0.005% (n = 220,000);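 active = peak rise of 1.5-fold or more in the series; tested in PC3 cells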;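 also: first round at 10 µM; read as green reporter fluorescence; hits show the peak of a series up to 25 µM; 1 = signal of infected wells without compound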
GALR2 agonist: activates the human galanin receptor 2. actives 0.48% (n = 140,000). O43603. GALR2-expressing cells, agonist activation read-out. AID 803. activation, %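 (tested at 5 µM)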;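 active = above mean plus 3 SD of all compounds, about 5% in these data, not always enough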;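 also: 0% = vehicle buffer wells and 100% = reference agonist at full effect; tested in CHO reporter cells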
PKD1 kinase inh: PKD1 (human) kinase inhibition; Q15139; PKD1 kinase fluorescence polarization assay; inhibition, %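 (about 10 µM by stock and volumes)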; actives 0.056% (n = 200,000);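 active = inhibition of 50% or more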;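 also: controls were vehicle for no effect and a reference inhibitor for full effect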
RGS16-Gao: modulates binding between human RGS16 and Galphao; O15492+P09471; bead-based flow cytometry RGS16-Galphao binding, fluorescence; actives lie on both sides; binding response (% of control), % at 10 µM; actives 0.38% (n = 220,000);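 active = below 25% or above 175%, edge rows of some plates excepted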;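 also: Galphao activated by GDP with aluminum fluoride before binding; 100% = wells without compound and 0% = beads without RGS; some results beyond the cut were filed as inactive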
Target sequence (O15492 whole entry, looked up): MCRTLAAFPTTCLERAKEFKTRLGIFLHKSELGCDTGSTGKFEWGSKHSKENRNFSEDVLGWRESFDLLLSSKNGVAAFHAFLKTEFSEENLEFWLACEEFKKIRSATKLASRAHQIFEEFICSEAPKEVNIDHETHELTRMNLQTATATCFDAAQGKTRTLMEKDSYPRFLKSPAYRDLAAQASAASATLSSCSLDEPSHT
Target sequence (P09471 whole entry, looked up): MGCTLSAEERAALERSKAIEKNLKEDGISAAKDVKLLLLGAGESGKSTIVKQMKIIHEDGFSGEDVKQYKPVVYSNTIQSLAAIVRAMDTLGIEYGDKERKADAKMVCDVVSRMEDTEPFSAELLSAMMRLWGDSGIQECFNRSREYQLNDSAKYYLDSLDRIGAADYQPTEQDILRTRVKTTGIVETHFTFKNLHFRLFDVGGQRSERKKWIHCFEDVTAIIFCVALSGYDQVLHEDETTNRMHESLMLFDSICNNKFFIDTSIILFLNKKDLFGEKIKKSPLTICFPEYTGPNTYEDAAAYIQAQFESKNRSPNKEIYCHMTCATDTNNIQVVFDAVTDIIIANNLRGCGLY
Insulin prom inh: TRM-6 insulin promoter activity inhibition | TRM-6 cells (human fetal islet line), insulin promoter-eGFP reporter, imaging; reporter expression induced with tamoxifen | inhibition, % at 2 µM | actives 0.9% (n = 130,000) | AID 1273;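 active = inhibition above the mean plus 3 SD, with well images judged a real hit on visual review, cut at about 60% in these data, passing the limit was not always enough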
Insulin prom inh cell count: further read-out of Insulin prom inh, marked with its call; normalized cell count, %; measured here: cell count, toxicity; reference of the scale not given here;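 cells exposed to compound for 48 h; stained nuclei by imaging scaled within each plate; lower means fewer cells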
HSV replic up primary fold: further read-out of HSV replic up, marked with its call; fold increase; compound at 10 µM; measured here: primary screen fold increase 10 uM; tested in PC3 cells;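 GFP signal in the first replicate; 1 = infected wells without compound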
* hit, by the source's call; i = inactive; . = not tested or not shown.

SMILES	HSV replic up	HSV replic up primary fold	GALR2 agonist	PKD1 kinase inh	RGS16-Gao	Insulin prom inh	Insulin prom inh cell count
CCOc1ccc(N(C)S(=O)(=O)c2ccc3[nH]cc(C(=O)NCCOC)c(=O)c3c2)cc1	i	1.1	.	0	94	12	83
Cc1ccc(O)c(NC(=O)C2CCCCC2)c1	i	0.87	.	.	98	.	.
O=C(Oc1c(Br)cc([N+](=O)[O-])cc1Br)c1cccnc1	i	0.98	-2.5	4	95	-42	85
COc1cc(/C=N/NS(=O)(=O)c2ccc(C(C)(C)C)cc2)cc([N+](=O)[O-])c1O	i	0.91	.	3	98	.	.
O=C(C1=C[C@@H](C2CCCCC2)C[C@@H](OCc2ccc(CO)cc2)O1)N1CCN(Cc2ccc3c(c2)OCO3)CC1	i	0.85	.	-1	101	.	.
CCOC(=O)c1c(NC2=NS(=O)(=O)c3ccccc32)sc2c1CCC(C)C2 (stereo unspecified)	i	0.95	0.1	5	114	3	103
CCn1c(C(C)NC(=O)c2ccc(Cl)cc2)n[nH]c1=S (stereo unspecified)	.	.	.	-8	101	-31	112
Cc1nn(-c2cc(N3CCCCCC3)ccc2[N+](=O)[O-])c(=O)c2ccccc12	i	0.87	-1.3	-2	91	26	110
O=C(O)c1ccc(N=Cc2nc(-c3ccco3)oc2O)cc1	i	1	.	-3	95	27	86
COc1ccc(-n2cc(-c3ccccc3)[n+]3c2CCCCC3)cc1	i	0.9	.	0	106	.	.
O=C(NCc1ccc2c(c1)OCO2)c1ccco1	i	0.93	.	-3	112	.	.
CCc1ccc(-n2c(=O)c3c(C)c(C(=O)N(C)C)sc3n(CC(=O)NCc3ccco3)c2=O)cc1	i	0.93	-0.6	7	102	.	.
CCn1c(SCC(=O)Nc2sc3c(c2C#N)CCCC3)nnc1-c1ccco1	i	0.96	-2.0	-3	102	-479	54
O=C1CC(c2ccco2)CC(O)=C1C=Nc1cc(Cl)cc(Cl)c1 (stereo unspecified)	i	0.9	-1.9	-6	103	45	129
Cc1cc(C)cc(C(=O)NCC(=O)OCC(=O)N2c3ccccc3NC(=O)C2(C)C)c1	i	0.9	-1.1	-12	44	.	.
CC(C)C1CC(c2ccccc2)(C(CN)CO)CCO1 (stereo unspecified)	i	0.94	.	2	96	-6	86
COc1ccc(-c2nnc(SCc3c(C)noc3C)n2N)cc1OC	i	0.96	-0.5	9	58	-21	122
CCc1cc2cccc(C)c2nc1SCC(=O)Nc1cc(C)on1	i	0.97	.	4	72	.	.
COc1ccc(CC(=O)Nc2ccc3nc(SC)sc3c2)cc1OC	i	0.95	.	4	110	.	.
COC(=O)/C=C1\S/C(=N\N=C\CC(=O)OC)NC1=O	i	1.1	.	.	98	.	.
C=CCOCCN1C(=O)C2C(c3ccccc3)C=CC(c3ccccc3)C2C1=O (stereo unspecified)	i	1.1	-1.3	-7	96	-41	28
COc1ccc(CCNC(N)=S)cc1OC	i	0.94	-1.5	-2	95	-44	113
S=c1[nH]cc(-c2ccccc2)n1-c1cccc(Cl)c1	i	1	-1.3	0	102	28	82
Cc1ccc(-c2cc(C(=O)O)c3cc(Br)ccc3n2)o1	i	1	-2.5	-3	110	58	72
CCOC(=O)C1CCN(C(=O)c2ccc(Cl)c(S(=O)(=O)N3CCOCC3)c2)CC1	i	0.98	1.1	0	95	.	.

Whole records from above. Values in the order: HSV replic up	HSV replic up primary fold	GALR2 agonist	PKD1 kinase inh	RGS16-Gao	Insulin prom inh	Insulin prom inh cell count
COC(=O)/C=C1\S/C(=N\N=C\CC(=O)OC)NC1=O reads i	1.1	.	.	98	.	.
CCOC(=O)C1CCN(C(=O)c2ccc(Cl)c(S(=O)(=O)N3CCOCC3)c2)CC1 reads i	0.98	1.1	0	95	.	.

(listing goes on)
SMILES	HSV replic up	HSV replic up primary fold	GALR2 agonist	PKD1 kinase inh	RGS16-Gao	Insulin prom inh	Insulin prom inh cell count
c1ccc2cc(OCc3nc4ccccc4[nH]3)ccc2c1	i	1.1	-3.0	-2	101	-81	74
COc1ccc([N+](=O)[O-])cc1NC(=O)C(C)N(C)Cc1cccc(OC)c1OC (stereo unspecified)	i	0.72	-1.6	9	110	-40	67
COc1ccc(C)cc1NC(=O)C(OC(=O)C1CC1)c1ccccc1 (stereo unspecified)	i	1	.	-1	100	.	.
COc1ccc(-c2cc(C(F)(F)F)nc(SCC(=O)Nc3cc(C)on3)n2)cc1OC	i	0.84	3.9	2	89	38	163
CC[N+](CC)(CC=C(C)C)CC(=O)OC	i	1	.	-7	110	.	.
O=C(CCC1CCCCC1)Nc1ccc(S(=O)(=O)Nc2nccs2)cc1	i	0.67	-1.3	-9	110	-24	136
O=C(NCC1CCCO1)c1ccc(S(=O)(=O)N2CCCCC2)cc1 (stereo unspecified)	i	0.91	-2.6	1	101	-394	40
CCn1c(SCC(=O)Nc2nccs2)nnc1-c1ccc(S(=O)(=O)N2CCCCCC2)cc1	i	0.96	-0.5	-4	103	0	152
CSc1ccccc1NC(=O)c1cccnc1	i	0.99	-2.4	3	101	33	84
CC1(C)CC(=O)C/C(=N\NC(=O)CCc2ccc(S(=O)(=O)N3CCOCC3)cc2)C1	i	0.99	.	0	100	.	.
Cc1c(Br)c([N+](=O)[O-])nn1CC(=O)c1ccccc1	i	0.92	.	-2	97	-50	172
COc1cccc(/C=C2\SC(=O)N(CCC(=O)NNC(=O)c3ccccc3Cl)C2=O)c1	i	1	-1.8	-1	102	46	107
CCOC(=O)Cc1nnc(NC(=O)COc2ccc(C)cc2)s1	i	0.95	-0.6	9	86	.	.
COc1ccc(NC2=NCC(=O)N2c2ccccc2F)cc1	i	1	-0.3	0	99	-47	115
CC(C)OC(=O)/C(=C\c1ccc2c(c1)c1ccccc1n2C)NC(=O)c1ccccc1	i	1.1	-1.2	-18	102	25	95
Cc1nc(/N=C(\N)N(C)C)[nH]c(=O)c1C	i	0.97	.	.	107	.	.

18 entries from above, as comma-separated lines.
SMILES,HSV replic up,HSV replic up primary fold,GALR2 agonist,PKD1 kinase inh,RGS16-Gao,Insulin prom inh,Insulin prom inh cell count
COC(=O)/C=C1\S/C(=N\N=C\CC(=O)OC)NC1=O,i,1.1,.,.,98,.,.
C=CCOCCN1C(=O)C2C(c3ccccc3)C=CC(c3ccccc3)C2C1=O (stereo unspecified),i,1.1,-1.3,-7,96,-41,28
COc1ccc(CCNC(N)=S)cc1OC,i,0.94,-1.5,-2,95,-44,113
S=c1[nH]cc(-c2ccccc2)n1-c1cccc(Cl)c1,i,1,-1.3,0,102,28,82
Cc1ccc(-c2cc(C(=O)O)c3cc(Br)ccc3n2)o1,i,1,-2.5,-3,110,58,72
CCOC(=O)C1CCN(C(=O)c2ccc(Cl)c(S(=O)(=O)N3CCOCC3)c2)CC1,i,0.98,1.1,0,95,.,.
c1ccc2cc(OCc3nc4ccccc4[nH]3)ccc2c1,i,1.1,-3.0,-2,101,-81,74
COc1ccc([N+](=O)[O-])cc1NC(=O)C(C)N(C)Cc1cccc(OC)c1OC (stereo unspecified),i,0.72,-1.6,9,110,-40,67
COc1ccc(C)cc1NC(=O)C(OC(=O)C1CC1)c1ccccc1 (stereo unspecified),i,1,.,-1,100,.,.
COc1ccc(-c2cc(C(F)(F)F)nc(SCC(=O)Nc3cc(C)on3)n2)cc1OC,i,0.84,3.9,2,89,38,163
CC[N+](CC)(CC=C(C)C)CC(=O)OC,i,1,.,-7,110,.,.
O=C(CCC1CCCCC1)Nc1ccc(S(=O)(=O)Nc2nccs2)cc1,i,0.67,-1.3,-9,110,-24,136
O=C(NCC1CCCO1)c1ccc(S(=O)(=O)N2CCCCC2)cc1 (stereo unspecified),i,0.91,-2.6,1,101,-394,40
CCn1c(SCC(=O)Nc2nccs2)nnc1-c1ccc(S(=O)(=O)N2CCCCCC2)cc1,i,0.96,-0.5,-4,103,0,152
CSc1ccccc1NC(=O)c1cccnc1,i,0.99,-2.4,3,101,33,84
CC1(C)CC(=O)C/C(=N\NC(=O)CCc2ccc(S(=O)(=O)N3CCOCC3)cc2)C1,i,0.99,.,0,100,.,.
Cc1c(Br)c([N+](=O)[O-])nn1CC(=O)c1ccccc1,i,0.92,.,-2,97,-50,172
COc1cccc(/C=C2\SC(=O)N(CCC(=O)NNC(=O)c3ccccc3Cl)C2=O)c1,i,1,-1.8,-1,102,46,107
